# Source: PubChem
# E coli growth: inhibitors of Escherichia coli growth. hit rate 0.21% among 330,000. OD600 absorbance (concentration not given with the values). OD600, 23 h; active compounds read low;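 active means OD600 absorbance below the run mean of sample wells minus 3.6 SD, in any replicate, cut at about 0.56 in these data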;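 further: stock transfer was 300 nL into about 60 µL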
# ALR inh: inhibitors of human sulfhydryl oxidase ALR. P55789. purified ALR, DTT oxidation, H2O2 HRP-luminol luminescence. inhibition, % (test concentration not listed). hit rate 3.8% among 290,000. AID 485317;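 active means mean and each replicate at 75% or more; inconclusive means only one of the two met; inactive means neither met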;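 further: stock transfer was 7.5 nL into about 7.5 µL; 0% = neutral wells and 100% = wells with inactivated enzyme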
# Target sequence (P55789 whole entry, looked up): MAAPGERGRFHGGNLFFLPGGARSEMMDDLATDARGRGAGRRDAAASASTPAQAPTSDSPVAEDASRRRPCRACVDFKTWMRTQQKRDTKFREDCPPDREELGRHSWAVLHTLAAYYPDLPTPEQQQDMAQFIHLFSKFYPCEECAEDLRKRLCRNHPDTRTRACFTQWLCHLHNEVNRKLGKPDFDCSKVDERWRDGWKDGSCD
# HNF4A DNA FP: change in binding of human HNF4 alpha to DNA; HNF4a-FITC DNA binding, fluorescence polarization, 1 h; activity change, % at 10 µM; AID 1224865; P41235; hit rate 0.3% among 360,000; in the data active means activity change above about 30%, passing the limit was not always enough;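 further: controls were the assay level and a saturating level of protein; the project sought stronger binding though the title names inhibitors; some compounds called inactive have numbers as strong as hits; positive values seem to mean higher polarization but the record does not say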
# Target sequence (P41235 whole entry, looked up): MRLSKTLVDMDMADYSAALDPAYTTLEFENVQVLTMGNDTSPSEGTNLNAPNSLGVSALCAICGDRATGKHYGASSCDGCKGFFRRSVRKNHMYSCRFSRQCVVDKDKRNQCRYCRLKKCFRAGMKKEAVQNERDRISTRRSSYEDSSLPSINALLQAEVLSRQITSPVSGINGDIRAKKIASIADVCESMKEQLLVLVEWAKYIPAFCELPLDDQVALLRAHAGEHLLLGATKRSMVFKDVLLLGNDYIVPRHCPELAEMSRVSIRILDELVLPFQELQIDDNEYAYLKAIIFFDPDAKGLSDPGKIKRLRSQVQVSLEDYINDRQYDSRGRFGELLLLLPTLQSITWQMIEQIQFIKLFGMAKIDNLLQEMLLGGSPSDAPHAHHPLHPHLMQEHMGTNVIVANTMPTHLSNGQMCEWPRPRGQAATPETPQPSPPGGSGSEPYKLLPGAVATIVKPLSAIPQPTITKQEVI
# FGF22 binding: shifts melting point of recombinant human FGF22 | hit rate 1.5% among 340,000 | AID 651658 | recombinant FGF22 thermal shift, SYPRO orange fluorescence; percent of sucrose octasulfate shift, DMSO zero | calls only at 9.99 µM | Q9HCT0;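 active means melting point raised past a set limit in the mean and every replicate; inconclusive means no clear call; three in four hits are not shown here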
# Target sequence (Q9HCT0 whole entry, looked up): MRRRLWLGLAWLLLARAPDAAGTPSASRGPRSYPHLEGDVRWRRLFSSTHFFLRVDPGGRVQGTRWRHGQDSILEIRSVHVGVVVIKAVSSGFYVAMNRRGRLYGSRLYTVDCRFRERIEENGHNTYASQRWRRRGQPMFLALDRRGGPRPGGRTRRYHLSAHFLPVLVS
# Vif TR-FRET: inhibitors of Vif binding to APOBEC3G peptide, primary screen, biochemical, TR-FRET, GST-Vif 1-94, biotin-A3G peptide, dose response retest (AID 1117319). inhibition, %; hits with a dose series show IC50 in µM. TR-FRET GST-Vif / biotin-A3G peptide binding; higher % means a stronger effect; test concentration not given here; strong numbers were not always called active. hit rate 0.57% among 260,000;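 active means above the screen mean plus three standard deviations and confirmed in dose response; inconclusive means results disagree or hit not tested in dose response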;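 further: Vif residues 1-94 fused to GST binding biotinylated APOBEC3G peptide 110-148; 0% = full assay without inhibitor and 100% = GST in place of GST-Vif; retest series ran down from 100 µM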
# MLL AF4-AF9 inh: MLL-AF4/AF9 protein interaction inhibition | P42568 | AlphaScreen, biotin-AF4 peptide binding to FLAG-AF9 | inhibition, % at 10 µM | hit rate 0.47% among 350,000;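 active means every replicate reaching a set inhibition limit, whatever the replicate mean, cut at about 25% in these data; inconclusive means mean inhibition reaches that limit but some replicates miss it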;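 further: 0% = plate neutral control median and 100% = total signal loss; the record names both 10 and 1 µM as test concentration; the first replicate is given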
# rRNA inh HTS: inhibits bacterial ribosomal RNA function over humanized ribosomes | GFP signal change (wild-type ribosome), % (no concentration beside the values) | hit rate 1.6% among 350,000 | E. coli WT GFP vs humanized-ribosome RFP mutants, fluorescence, 24 h; active compounds read low; DMSO median 0, no signal -100;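 active means significant combined selectivity score with lowered wild-type GFP, culture density cut under 30%, mutant RFP and density less affected; inactive means any of these conditions unmet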; further: one replicate is shown; some compounds called inactive have numbers as strong as hits
# rRNA inh HTS OD600: also measured in rRNA inh HTS; calls as there; OD600 change, %; measured here: OD600 growth;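 optical density of the mix in the first replicate; 0 = DMSO median and -100 = no signal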
# rRNA inh HTS RFP: recorded beside rRNA inh HTS, whose call it bears; RFP signal change, %; measured here: RFP humanized mutant strains;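 first replicate; 0 = DMSO median and -100 = no signal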
# * = called active by the depositor; i = inactive; ? = inconclusive; . = no result given. Not all compounds are listed; the hit share may differ from the screen's.
SMILES,E coli growth,ALR inh,HNF4A DNA FP,FGF22 binding,Vif TR-FRET,MLL AF4-AF9 inh,rRNA inh HTS,rRNA inh HTS OD600,rRNA inh HTS RFP
COc1ccccc1NC(CC(=O)c1ccccc1)C(=O)OCC(=O)c1ccc(F)cc1 (centres undefined),0.74,-9,-1.0,.,-1%,.,.,.,.
C/C=C/c1ccc2c(c1)O[C@@H](CN(C)Cc1ccc(C(=O)O)cc1)[C@@H](C)CN([C@H](C)CO)S2(=O)=O,.,.,.,i,.,-3.5,-2,-2,-0.8
COc1ccc(C(=O)COC(=O)c2ccc(NC(C)=O)cc2)cc1[N+](=O)[O-],0.72,.,-1.6,.,0%,.,.,.,.
O=C(CCCn1c(=O)[nH]c2cc(Cl)ccc2c1=O)NC1CCCCCC1,0.7,-6,0.2,.,2%,.,.,.,.
COc1ccc(S(=O)(=O)N2CCN(C(=O)C3CC3)CC2)cc1,0.69,8,-3.5,i,.,-1.6,4,3,-0.6
COc1cccc(-c2ccc([C@H]3[C@H](CO)N4CCCCN(Cc5cncnc5)C[C@@H]34)cc2)c1,.,.,.,i,.,4.1,-7,0,-0.4
O=C(Nc1nnc(SCC(=O)N2CCCc3ccccc32)s1)c1ccccc1,0.69,-3,-3.9,i,.,2.0,-8,-1,-4.2
O=C(NC1C2CC3CC(C2)CC1C3)c1ccc(N2CCNCC2)c([N+](=O)[O-])c1 (centres undefined),0.65,-2,2.0,i,-3%,.,4,1,3.3
CC(C)Cn1c(CN(Cc2ccccc2)Cc2ccccc2)nc2c1c(=O)n(C)c(=O)n2C,0.78,-5,3.1,i,0%,-34,-4,-15,-6.8
COc1ccc(CCN(C)Cc2nc(-c3cnccn3)no2)cc1OC,0.7,0,1.5,i,16%,13,8,3,-3.7
COc1cc(/C=C2\N=C(c3ccccc3)OC2=O)ccc1OCc1c(C)no[n+]1[O-],0.71,-2,-2.7,.,.,.,.,.,.
Cc1cccc(-c2nsc(SCC(=O)NCC3CCCO3)n2)c1 (centres undefined),0.71,-11,1.2,.,3%,-1.3,-22*,-15*,5.8*
c1ccc(Cn2cc(CSc3ccccc3)nn2)cc1,0.69,.,4.9,i,-7%,2.4,-33*,-22*,-2.1*
O=C(O)C(SC(C(=O)O)c1ccccc1)c1ccccc1 (centres undefined),.,.,-3.3,i,-3%,-2.4,11,9,1.3
CC(=O)Nc1ccc(NS(=O)(=O)c2ccc(-c3csc(C)n3)s2)cc1,0.65,-4,4.0,i,-6%,-3.9,.,.,.
CCCN1[C@@H]2c3ccc(-c4ccccc4)c(=O)n3C[C@H]1[C@H](CO)[C@H]2C(=O)NCCCN1CCOCC1,.,.,.,i,.,-1.3,0,1,-2.3
Cc1sc2ncnc(N3CCC(C(=O)Nc4ccc(Cl)c(Cl)c4)CC3)c2c1C,0.68,.,-2.6,i,7%,4.3,-10,-23,1.8
COc1cc(CN2CC(=O)N(c3cc(Cl)ccc3C)C2=S)cc(OC)c1OC,0.67,6,1.6,i,-6%,-1.2,-6,-1,6.2
O=C(Nc1cccc(Cl)c1)N[C@@H]1CC[C@H](CCNC(=O)C2CCCCC2)O[C@@H]1CO,.,.,.,i,.,1.0,-6,-13,0.5
O=C(CN1C(=O)/C(=C/c2ccccc2)Sc2ccccc21)NCCCN1CCOCC1,0.69,3,5.3,i,2%,0.2,0,11,0.4
CC(C)[C@@H](C(=O)N[C@@H](CCc1ccc(O)cc1)C(=O)O)N(C)C(=O)[C@H](CO)NC(=O)[C@@H](O)[C@H](N)CCCCCCCCl,.,.,-0.3,i,.,-0.3,.,.,.
C[C@@H]1CN([C@H](C)CO)C(=O)c2cc(NC(=O)Cc3ccccc3)ccc2O[C@@H](C)CCCCO[C@H]1CN(C)Cc1ccncc1,.,.,.,i,.,3.2,1,-1,-1.8
C[C@@H]1CN([C@@H](C)CO)C(=O)Cc2cc(NC(=O)c3ccncc3)ccc2O[C@@H]1CN(C)C(=O)Nc1ccc(C(F)(F)F)cc1,.,.,.,i,.,-8.3,1,7,1.1
COc1cccc2c1OC[C@@H](CO)[C@H]2N(C)C(=O)Nc1ccc(Cl)cc1,0.71,6,-2.5,.,7%,.,.,.,.
C[C@H](CO)N1C[C@H](C)[C@@H](CN(C)C(=O)Nc2ccc3c(c2)OCO3)Oc2ccc(NS(C)(=O)=O)cc2C1=O,.,.,.,i,.,-4.9,-3,1,1.4
Cn1cc([N+](=O)[O-])c(C(=O)Nc2sc3c(c2C#N)CCC3)n1,0.71,21,-0.1,i,-12%,-9.1,7,13,1.1
COc1c(C)cc(S(=O)(=O)N2CCCC2)c(C)c1C,0.66,-4,2.4,.,4%,.,.,.,.
C[C@@H]1CN([C@@H](C)CO)C(=O)c2cc(NS(=O)(=O)c3cccs3)ccc2O[C@@H](C)CCCCO[C@@H]1CN(C)C(=O)Nc1ccc(F)cc1,.,.,.,i,.,2.5,-1,-7,-1.7
O=C(Oc1coc(CSc2ncccn2)cc1=O)c1ccc(Br)o1,0.7,.,-2.2,i,.,4.7,0,-3,-5.3
O=C(NCC1CC1)c1onc(CSc2ccncc2)c1C(=O)NCC1CC1,0.71,-1,-2.9,i,2%,.,-4,12,-2.9
Cc1ccc(S(=O)(=O)Nc2ccc3c(c2)C(=O)N([C@@H](C)CO)C[C@@H](C)[C@H](CN(C)CC2CCCCC2)OCCCC[C@@H](C)O3)cc1,.,.,.,i,.,4.5,4,-11,17
CCC(=O)N(C)C[C@@H]1Oc2ncc(C#CC3(O)CCCC3)cc2C(=O)N([C@@H](C)CO)C[C@@H]1C,.,.,.,i,.,-1.8,4,-4,-0.9
O=C(c1ccco1)N1CCN(C(=S)Nc2ccc(F)c(Cl)c2)CC1,0.69,0,-0.6,i,-1%,0.1,-27,-18,-6.8
COC(=O)c1cc(NC(=O)CC2SCCNC2=O)cc(C(=O)OC)c1 (centres undefined),0.72,-3,-1.4,.,-3%,.,.,.,.
Cc1ccc(NC(=O)C2C3CCC(O3)C2C(=O)O)c(Br)c1 (centres undefined),0.69,-6,3.8,i,1%,-7.8,-1,2,-0.2
COc1cccc(-c2cc(C(=O)N3CCN(c4ccc(F)cc4)CC3)no2)c1,0.68,-7,-1.6,i,.,-1.1,14,21,0.1

# The final six compounds of the part above open the next one.
SMILES,E coli growth,ALR inh,HNF4A DNA FP,FGF22 binding,Vif TR-FRET,MLL AF4-AF9 inh,rRNA inh HTS,rRNA inh HTS OD600,rRNA inh HTS RFP
Cc1ccc(S(=O)(=O)Nc2ccc3c(c2)C(=O)N([C@@H](C)CO)C[C@@H](C)[C@H](CN(C)CC2CCCCC2)OCCCC[C@@H](C)O3)cc1,.,.,.,i,.,4.5,4,-11,17
CCC(=O)N(C)C[C@@H]1Oc2ncc(C#CC3(O)CCCC3)cc2C(=O)N([C@@H](C)CO)C[C@@H]1C,.,.,.,i,.,-1.8,4,-4,-0.9
O=C(c1ccco1)N1CCN(C(=S)Nc2ccc(F)c(Cl)c2)CC1,0.69,0,-0.6,i,-1%,0.1,-27,-18,-6.8
COC(=O)c1cc(NC(=O)CC2SCCNC2=O)cc(C(=O)OC)c1 (centres undefined),0.72,-3,-1.4,.,-3%,.,.,.,.
Cc1ccc(NC(=O)C2C3CCC(O3)C2C(=O)O)c(Br)c1 (centres undefined),0.69,-6,3.8,i,1%,-7.8,-1,2,-0.2
COc1cccc(-c2cc(C(=O)N3CCN(c4ccc(F)cc4)CC3)no2)c1,0.68,-7,-1.6,i,.,-1.1,14,21,0.1
COc1ccc(S(=O)(=O)N(C)C[C@@H]2Oc3ccc(NS(=O)(=O)c4ccccc4)cc3CC(=O)N([C@@H](C)CO)C[C@@H]2C)cc1,.,.,.,i,.,-1.4,3,2,0.2
CCN1CCN(C(c2cccs2)C(C)NC(=O)C(C)C)CC1 (centres undefined),0.69,-1,-1.3,i,?,-2.8,4,10,0.3
NC(=O)C1CCN(C2CC(=O)N(Cc3cccs3)C2=O)CC1 (centres undefined),0.69,.,1.3,i,-4%,-0.8,17,17,-5.2
O=C(N/N=C/c1cccc2ccccc12)c1cccc(F)c1,.,-12,2.9,i,.,-5.6,-4,-13,1.0
Cn1c(NC(=O)c2ccc3c(c2)OCO3)cc(=O)n(C)c1=O,0.74,-34,2.8,i,0%,-3.6,5,6,-2.0
Cc1cc(NC(=O)c2cc(C(C)C)on2)nn1Cc1ccc(Cl)cc1,0.69,1,1.4,i,6%,-10,-10,-22,1.2
COc1ccccc1CNC(=O)C[C@H]1C[C@H]2c3cc(NC(=O)c4ccc5c(c4)OCO5)ccc3O[C@H]2[C@@H](CO)O1,.,.,.,i,.,3.4,-4,-4,-7.0
Cc1ccc(CNC(C)(C)CO)cc1,0.73,-3,2.3,.,.,.,.,.,.
Cc1cc(SCC(=O)Nc2ccc3[nH]c(=O)[nH]c3c2)nc2ccccc12,0.65,28,-4.8,i,-2%,-1.4,14,28,0.9
COc1ccc(-c2c(C(C)=O)c(C)nc3sc4c(=N)n(N)cnc4c23)cc1,0.67,-8,0.5,.,-2%,.,.,.,.
O=C(c1cnn(C(=O)c2cccc(S(=O)(=O)N3CCOCC3)c2)c1)c1ccccc1O,0.68,90*,0.0,.,-2%,-0.5,7,11,1.8
CCCCNC(=O)C1CCN(S(=O)(=O)N2CCCCCC2)CC1,0.7,12,-3.2,.,-4%,.,.,.,.
CCOC(=O)c1c(C)[nH]c(C(=O)CN2C(=O)NC3(CCCC3)C2=O)c1C,0.73,-13,1.1,i,4%,-7.8,7,0,-0.1
O=C(COC(=O)Cc1ccc(Cl)cc1Cl)NCc1ccccc1,.,.,0.8,i,.,-1.6,5,0,0.0
Cc1ccc(S(=O)(=O)c2ccc(Cl)cc2)cc1S(=O)(=O)NC(C(=O)O)C(C)C (centres undefined),0.67,5,-3.3,.,-3%,.,.,.,.
Cc1nc2ccc(N)nc2nc1C,0.69,.,-1.2,i,-3%,-4.5,23,20,3.1
NN(CCO)C(=S)Nc1ccc(Cl)cc1,0.69,8,-0.7,i,-9%,-2.3,-2,-1,-2.9
COc1ccc(S(=O)(=O)NCc2ccc(F)cc2)cc1OC,0.67,.,-0.8,i,-3%,-0.7,0,7,-4.4
COc1ccc(CCNC(=O)c2cccc(S(=O)(=O)N3CCCC3)c2)cc1,0.71,.,0.5,i,5%,-0.9,-2,-2,2.3
CC(C)c1nc2c(s1)CCc1onc(-c3ccc(Cl)cc3)c1-2,0.7,.,-4.3,i,.,-3.0,13,-10,-4.1
Cn1ncc2c(Nc3cccc([N+](=O)[O-])c3)ncnc21,0.65,-6,-0.7,i,3%,0.2,-11,5,2.7
CCOC(=O)c1c(NC(=O)COC(=O)c2c(C)noc2C)sc2c1CCC2,0.7,.,3.3,.,-1%,.,.,.,.
CNC[C@@H]1OCCCC[C@@H](C)Oc2ccc(NC(=O)Nc3ccccc3)cc2C(=O)N([C@H](C)CO)C[C@H]1C,.,.,.,i,.,6.4,4,10,-3.0
CCCCN(CCCC)Cc1ccc(C(=O)NNC(=O)Nc2ccccc2)o1,0.67,29,8.0,i,3%,6.6,3,-12,-8.0
C[C@H](CO)N1C[C@H](C)[C@@H](CN(C)S(=O)(=O)c2ccc(F)cc2)Oc2ccc(NC(=O)NC3CCCCC3)cc2CC1=O,.,.,.,i,.,2.3,-2,-14,-3.5
